Mtb hypoxia rep: reduces hypoxia-regulated biosensor signal in M. tuberculosis | M. tuberculosis hypoxia-regulated fluorescent reporter, fluorescence | fluorescence inhibition, % (no concentration beside the values) | AID 1159583 | actives 0.1% (n = 300,000);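 active = 35 to 45% if threefold the growth effect, above 45% if 1.5-fold the growth effect; inactive = the rest, general growth blockers included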;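 also: wells of about 50 µL received 100 nL stock; 0% = vehicle wells and 100% = reference inhibitor wells; whole bacteria with a GFP reporter of the hypoxia response; strong numbers were not always called active; many hits fall short of the cut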
Sa RN4220 lethal: kills Staphylococcus aureus RN4220 | S. aureus RN4220 growth, OD600, 16 h | inhibition, % (test concentration not listed) | actives 0.33% (n = 330,000);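 active = z-score of -3 or lower and OD600 up to 0.18 on both plates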;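 also: plate controls were untreated cells for no effect and reference antibiotic for full effect; stock transfer was 100 nL into about 80 µL; one replicate is shown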
Bead autofluor: counter-screen for toxin protease inhibitors: compound fluorescence | compound autofluorescence counterscreen, microsphere flow cytometry; hits give high values | fluorescence intensity (concentration not given with the values) | actives 3.1% (n = 360,000) | AID 624483;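 active = at least 3 SD above the mean of all compounds, about 16000 in these data; inconclusive = too few beads counted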;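 also: 100 nL of 1 mM stock went into each well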
Sa ugtP lethal: growth inhibition of S. aureus ugtP deletion strain | S. aureus RN4220 ugtP deletion, OD600 growth, 16 h; some inactives read as strong as hits | growth inhibition, % (concentration not given with the values) | actives 0.54% (n = 330,000);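 active = z-score under -3 and OD600 up to 0.15 on both plates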;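 also: plate controls were untreated wells for no effect and antibiotic for full effect; wells of about 80 µL received 100 nL stock; the first replicate is given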
PrP UTR inh: suppresses PrP 5' UTR mRNA reporter expression; cell-based PrP 5' UTR mRNA reporter, plate reader; actives 0.35% (n = 340,000); AID 488862; inhibition, % (concentration not given with the values);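 active = every replicate at 50% or more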;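 also: 0 = median of the neutral control wells; tested in H4 reporter cells; numbers are from one replicate; inactives centre near -14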
BJeLR viability: BJeLR cell viability loss | BJeLR (HRASV12) viability, CellTiter-Glo ATP luminescence, 48 h; reference of the scale not given here | inhibition, % (concentration not given with the values) | actives 0.17% (n = 300,000) | AID 1554;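 active = replicate mean above 50%; inconclusive = above 50% but judged a plate artefact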;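 also: 50 nL library stock added to about 25 µL; numbers are from one replicate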
Mtb hypoxia rep growth: recorded beside Mtb hypoxia rep, whose call it bears; growth inhibition, %; measured here: M. tuberculosis growth (absorbance);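 0% = vehicle and 100% = reference antibiotic; read after six days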
Active calls of the source: *; u = inconclusive; x = no result given.

SMILES	Mtb hypoxia rep	Mtb hypoxia rep growth	Sa RN4220 lethal	Bead autofluor	Sa ugtP lethal	PrP UTR inh	BJeLR viability
CCCCCCn1c(CN2CCCCC2C)nc2c1c(=O)n(C)c(=O)n2C (stereo not given)	3	6	-0.7	7050	2	-15	-18
CC(C)c1cccc(O)c(=O)c1	x	x	7.5	4436	16	4	6
c1ccc(CSc2nc3ncccn3n2)cc1	1	8	1.8	3966	4	-34	x
CCCCOC(=O)CCc1c(C)[nH]c(=O)c(C#N)c1C	x	x	0.0	2662	-1	4	9
Nc1ncnc(Oc2cccc(C(F)(F)F)c2)c1[N+](=O)[O-]	-4	8	7.9	4109	4	-23	-4
c1ccc(-c2nn3c(Cn4cnc5ccccc54)nnc3s2)cc1	2	3	7.1	9439	-2	-3	-10
CC(C)OC(=O)C1C2C=CC3(CN(C(C)c4ccc(Br)cc4)C(=O)C13)O2 (stereo not given)	x	x	2.7	5547	1	-8	-12
COc1ccc(NC(=O)CSc2ncnc3c2sc2ccccc23)c(OC)c1	x	x	x	2660	x	-2	19
O=C(CCC(=O)N(CC(=O)NC1CCCC1)c1cccc(F)c1)Nc1nccs1	6	-1	-0.1	4132	-2	-15	4
CCOC(=O)c1ccc(NC(=O)CCn2c(=O)oc3ccccc32)cc1	7	2	-0.3	5774	2	-23	-7
CCCCC(=O)O[C@H]1CC[C@H]2[C@@H]3CCc4cc(O)ccc4[C@H]3CC[C@]12C	x	x	x	5428	x	-19	12
COc1ccc(C2CC(=O)C3=C(C2)Nc2ccccc2N(C(=O)C2CC2)C3c2cccnc2)cc1OC (stereo not given)	-7	-2	-2.8	7842	-1	x	23
O=S(=O)(c1ccc(N2CCN(CCO)CC2)nc1)N1CCOCC1	0	-3	-0.8	4515	-1	-19	7
CN(C)S(=O)(=O)c1cccn1-c1ncc(C(F)(F)F)cc1Cl	20	10	2.6	4494	11	-10	2
O=C(CN(C(=O)c1cccc([N+](=O)[O-])c1)C1CCCCC1)Nc1ccc(Cl)c([N+](=O)[O-])c1	11	6	3.6	2445	-26	-15	-6
CCN(CC)C(=O)Cn1c(=O)n(CCCC(=O)NCc2ccccc2)c(=O)c2sccc21	x	x	x	4523	x	-27	13
C=CCn1c(N)c(C(=O)OC(C)CC)c2nc3ccccc3nc21 (stereo not given)	0	1	-16	2576	-4	-7	-4
CC1CCN(C(C)C(=O)Nc2cc(S(=O)(=O)N3CCCCC3)ccc2Cl)CC1 (stereo not given)	10	13	-2.4	5379	-8	-10	x
CCc1nc2ccc(N3CCN(C)CC3)cc2nc1CC	-6	2	0.3	3951	0	-71	-8
CCNc1nc(NCC)nc(N(C#N)CCOc2ccccc2)n1	7	1	1.8	2692	4	-27	3
CCOc1ccc(-n2c(Cc3cc(=O)[nH]c(=O)[nH]3)nnc2SCC(=O)OC)cc1	x	x	-2.4	6366	3	-25	-5
CC1CCN(C(=O)COC(=O)c2ccc([N+](=O)[O-])o2)CC1	x	x	5.6	3565	13	-17	x
CC(C)(C)Nc1ncnc2c1cnn2-c1ccccc1	1	5	5.0	5564	-5	-92	10
O=C1CCCN1CC1CCCN(Cc2nc(COc3ccccc3)no2)C1 (stereo not given)	2	2	3.8	4002	1	-5	x
CC(=NOC(=O)c1ccc(Br)cc1)c1ccc(C)cc1	4	1	1.6	x	2	x	x
CC1=C(C(=O)N2CCCC(CCC(=O)NCc3ccccc3F)C2)OCCO1 (stereo not given)	18	11	2.7	4216	5	-20	-3
CC(C)(C)NC(=O)CCc1nnc(Cc2c[nH]c3ccccc23)o1	5	9	2.6	2070	5	-1	-2
CC1COc2ccccc2N1S(=O)(=O)c1ccccc1 (stereo not given)	8	2	4.5	3743	-2	-19	0
C[C@]12CC[C@@H]3c4ccc(O)cc4CC[C@H]3[C@@H]1CC[C@@H]2OC(=O)CCC(=O)O	x	x	x	4360	x	-10	2
COc1cc(/C=N\NC(=O)c2ccc(Cn3nc([N+](=O)[O-])c(Cl)c3C)o2)ccc1O	x	x	x	2462	x	4	3
CCC(C)c1ccccc1NC(=O)C(C)OC(=O)CN1C(=O)NC(C)(C)C1=O (stereo not given)	3	4	1.6	u	3	-7	-2
Cc1noc(C)c1COC(=O)c1ccc(F)c(S(=O)(=O)N2CCCCC2)c1	3	4	3.5	3132	13	-18	0
COc1ccc(NC(=O)C(c2cc3c(cc2[N+](=O)[O-])OCO3)N2CCN(C=O)CC2)cc1 (stereo not given)	7	4	6.9	2141	6	-17	-5
Cc1ccc(N(C(=O)c2sc(C)nc2C)C(C(=O)NCc2ccco2)c2ccccc2)cc1 (stereo not given)	5	-8	5.8	10053	-1	-7	-6
O=[n+]1c2c(n([O-])c3c1CCCC3)CCCC2	7	8	0.9	11512	-1	-10	-2
COC(=O)c1ccc(Oc2nc(N(C)C)nc(N3CCOCC3)n2)cc1	x	x	0.0	4582	2	-3	-1
O=C(CSc1ncnc2c1nnn2Cc1ccc(F)cc1)NCC1CCCO1 (stereo not given)	9	8	-0.9	6501	0	-9	3
COc1ccc2[nH]c(C(=O)Nc3ccccc3Cl)cc2c1	4	12	-0.9	x	-12	x	8
COc1ccc(C)cc1NC(=O)CCNS(=O)(=O)c1ccc2c(c1)CCC(=O)N2	13	8	4.6	5097	10	-9	8
O=C(CSCc1ccccc1)N1CCN(C(=O)c2ccco2)CC1	10	5	2.9	11877	7	-14	1

One compound at a time, from the list above.
`COc1ccc(C)cc1NC(=O)CCNS(=O)(=O)c1ccc2c(c1)CCC(=O)N2` is listed as Mtb hypoxia rep = 13; Mtb hypoxia rep growth = 8; Sa RN4220 lethal = 4.6; Bead autofluor = 5097; Sa ugtP lethal = 10; PrP UTR inh = -9; BJeLR viability = 8
`COc1ccc2[nH]c(C(=O)Nc3ccccc3Cl)cc2c1` is listed as Mtb hypoxia rep = 4; Mtb hypoxia rep growth = 12; Sa RN4220 lethal = -0.9; Bead autofluor = x; Sa ugtP lethal = -12; PrP UTR inh = x; BJeLR viability = 8

The results go on.
SMILES	Mtb hypoxia rep	Mtb hypoxia rep growth	Sa RN4220 lethal	Bead autofluor	Sa ugtP lethal	PrP UTR inh	BJeLR viability
Cc1nnc(SC(C)C(=O)Nc2c(C)n(C)n(-c3ccccc3)c2=O)n1N (stereo not given)	3	9	3.0	4364	-6	-29	-11
COc1ccc(-n2nnnc2-c2cccc(OC)c2)cc1	x	x	0.7	2462	-4	22	36
CN(CC(=O)Nc1ccc(S(=O)(=O)N(C)C)cc1)Cc1ccc(C(F)(F)F)cc1	4	1	6.5	5197	4	-15	-3
O[C@@H]1CN(Cc2ccccc2Cl)CC[C@H]1N1CCOCC1	6	1	2.0	3755	1	-16	4
NS(=O)(=O)c1ccc(CCNC(=O)c2ccco2)cc1	0	6	5.9	4159	5	-2	6
CCCn1c(O)c(N=NC(=O)c2ccco2)c2ccccc21	-8	6	26	2102	-16	8	-7
Cc1ccc(C)c(S(=O)(=O)NCC(c2ccco2)N2CCc3ccccc3C2)c1 (stereo not given)	-1	4	15	5747	17	-11	1
Cc1ccc(N=Nc2ccc(O)c(/C=N\NC(=O)c3ccc(N)cc3)c2)cc1C	x	x	x	8972	x	3	-4
COc1ccc(NC(=O)C2CCC(CNS(=O)(=O)c3cccs3)CC2)cc1OC (stereo not given)	7	-1	7.4	1992	2	-10	5
CCC(Cc1ccccc1)NC(=O)Cn1cccc1C(=O)c1ccccc1 (stereo not given)	-8	-3	-4.4	5416	3	5	2
COc1ccc(S(=O)(=O)n2cnc(C)c2)cc1	-4	2	-0.7	4083	1	-30	0
CC(C)n1nnnc1SCC(=O)NCc1ccc2c(c1)OCO2	x	x	-1.4	3017	5	-3	-8
CN(C(=O)CSc1nnc(-c2ccco2)n1Cc1ccccc1)C1CCS(=O)(=O)C1 (stereo not given)	7	-3	4.1	3005	7	2	x
CCC(CC)NC(=O)/C=C/c1cccc([N+](=O)[O-])c1	11	15	2.5	1955	4	-32	5
CCN(CC)c1ccc(/C=C(\C#N)C(=O)NCc2ccco2)cc1	-1	13	0.0	x	-4	x	x
CCOC(=O)C(=O)/C(=C\N(C)C)c1onc(-c2ccccc2Cl)c1C(=O)OC	x	x	3.9	2766	-3	-5	2
ON=C1CCC(=NO)c2nn(-c3ccccc3)nc21	-74	-7	5.8	x	-12	x	x
Cc1cc(C)cc(NCC(=O)Nc2c(C)cccc2C)c1	-3	11	3.5	9166	-13	-17	2
COc1cc(-c2noc(C)c2C(=O)NCCCN2CCOCC2)cc(OC)c1OC	-1	8	6.1	4046	1	-14	x
ON=C(COc1ccccc1O)c1ccccc1	-5	-7	7.5	x	-6	x	x
CSc1cccc(NS(=O)(=O)c2ccc3c(c2)oc(=O)n3C)c1	x	x	6.1	6788	8	-10	-2
COC(=O)c1ccc(CNC(=O)Cn2cnc(C(=O)Nc3ccc(C)c(C)c3)n2)cc1	-10	6	6.4	3788	6	-41	x
CC1(C)CC(=O)C(C2C3=C(CC(C)(C)CC3=O)Oc3ccc4ccccc4c32)C(=O)C1 (stereo not given)	5	10	0.5	3513	4	-36	6
Cc1ccc2cc(C)c(N3CCC(C)CC3)nc2c1	14	9	6.3	4681	-1	-16	1
c1ccc(Cn2c[n+](Cc3ccccc3)c3ccccc32)cc1	7	9	2.6	6364	5	7	11
CS/C(=N/S(=O)(=O)c1ccc(C)cc1)c1ccccc1	x	x	x	2001	x	-6	18
CCOc1ccc(N)cc1OC	12	1	9.0	5425	4	-24	-7
COc1ccc(N2CC(C(=O)N[C@@H](C)C(=O)NCCc3ccccc3)CC2=O)cc1 (stereo not given in full)	-3	6	1.8	5797	1	5	-2
CCCC/C(O)=C1\C(=O)CCCC1=NCCc1c(C)[nH]c2ccc(OC)cc12	11	6	2.5	3298	0	-12	-6
COc1ccc2c(c1)C1C(CO2)C(c2ccccc2)[C@]2(C)C(=O)Nc3cc(F)c(F)cc3C(=O)N12 (stereo not given in full)	12	12	-16	x	-1	x	x

Gathered by group, the compounds so far with an NH in an aromatic ring.
SMILES	Mtb hypoxia rep	Mtb hypoxia rep growth	Sa RN4220 lethal	Bead autofluor	Sa ugtP lethal	PrP UTR inh	BJeLR viability
CCCCOC(=O)CCc1c(C)[nH]c(=O)c(C#N)c1C	x	x	0.0	2662	-1	4	9
CCOc1ccc(-n2c(Cc3cc(=O)[nH]c(=O)[nH]3)nnc2SCC(=O)OC)cc1	x	x	-2.4	6366	3	-25	-5
CC(C)(C)NC(=O)CCc1nnc(Cc2c[nH]c3ccccc23)o1	5	9	2.6	2070	5	-1	-2
COc1ccc2[nH]c(C(=O)Nc3ccccc3Cl)cc2c1	4	12	-0.9	x	-12	x	8
CCCC/C(O)=C1\C(=O)CCCC1=NCCc1c(C)[nH]c2ccc(OC)cc12	11	6	2.5	3298	0	-12	-6

Further entries follow.
SMILES	Mtb hypoxia rep	Mtb hypoxia rep growth	Sa RN4220 lethal	Bead autofluor	Sa ugtP lethal	PrP UTR inh	BJeLR viability
CCOC(=O)C1=NNC2C(=O)N(Cc3ccccc3)C(=O)C12 (stereo not given)	7	9	5.8	4841	13	-30	-2
COc1ccc(Cl)cc1NC(=O)c1cc(C)no1	3	-1	-0.7	3794	7	-24	2
O=C(CCc1nc2ccccc2c(=O)[nH]1)NNC(=O)c1ccc(Cl)cc1	7	3	-0.8	u	0	-7	0
Cc1onc(C(=O)N2CCN(C(c3ccccc3)c3ccccc3)CC2)c1[N+](=O)[O-]	x	x	-2.7	6164	14	-7	75*
O=C(N/N=C/c1c[nH]c2ccccc12)c1cc(Cl)ccc1O	x	x	x	3127	x	-18	7
O=C(CCN1C(=O)NC2(CCCC2)C1=O)Nc1cccc(S(=O)(=O)N2CCOCC2)c1	5	-5	5.4	3373	-1	-33	x
O=C(O)c1cc(=O)[nH]c2c(Cl)cccc12	6	-1	1.1	4457	1	-7	-2
CN(C)c1ccc(-c2noc(-c3ccccc3O)n2)cc1	7	5	-9.8	3734	12	8	5
NC(=NOC(=O)c1ccc([N+](=O)[O-])cc1Cl)c1ccccn1	14	5	-3.6	x	3	x	x
O=C(Oc1ccccc1C(=O)N1CCOCC1)c1cccc(Br)c1	x	x	-6.9	3661	79	-7	1
CC1CCCN(c2oc(-c3cccc4ccccc34)nc2C#N)C1 (stereo not given)	5	8	0.3	17536*	-4	-36	-6
CC(=O)C1=C(C)NC(SCC(=O)c2ccc(Cl)cc2)=C(C#N)C1CC(C)C (stereo not given)	6	2	2.9	9948	16	-6	-10
Cc1nc(-c2ccc(Cl)cc2)sc1C1(C)CC(c2ccccc2)=NO1 (stereo not given)	3	7	5.3	4419	6	-53	-2
